TRPML1 ag: qHTS for Agonists of the Human Mucolipin Transient Receptor Potential 1 (TRPML1) | TRPML1-expressing cells, Ca2+ dye fluorescence, FDSS; host cell line not named in the record; reference of the full effect not given here | activation, % (concentration not given with the values) | hit rate 0.12% among 410,000 | AID 624414, 2012 | Mucolipin-1 (Homo sapiens), Q9GZU1; in the data active = activation above about 50%; inconclusive = about 30% to 50%; inactive = below about 30%; further: 0% is about no effect; the text of the record puts the active cut at 80%
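Calcium fluorescence on an FDSS kinetic reader gave the read-out. Tet-induced TRPML1-DL cells were plated overnight, dye-loaded (Ca8 with quencher, 45-90 min, room temperature, dark), then read 110 s after compound addition, and again 110 s after 4uM final 54-4 (EC80).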
TRPML1 blocker: qHTS for Inhibitors of the Human Mucolipin Transient Receptor Potential 1 (TRPML1); Mucolipin-1 (Homo sapiens), Q9GZU1; TRPML1-inducible cells, Ca2+ dye fluorescence, FDSS; active compounds read low; inhibition of EC80 agonist-evoked calcium signal; activity change, negative = inhibition, % (concentration not given with the values); hit rate 0.02% among 390,000; AID 624415, 2012; in the data active means activity change below about -50%; inconclusive means about -30% to -50%; inactive means above about -30%;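 further: stimulus is agonist 54-4 at its EC80 concentration; on the % scale 0 is the no-effect control and ±100 the full control effect; the text of the record puts the active cut at -80%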
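TRPML1-DL cells, Tet-induced overnight (~16 h, 37 °C) at 1,500 cells/well, were loaded with Ca8 no-wash dye plus quencher for 45-90 min at room temperature. Compounds were pinned during FDSS kinetic reading; agonist 54-4 at EC80 (4 uM final) then added.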
Six1-Eya2 blk: qHTS Assay for Inhibitors of the Six1/Eya2 Interaction | Homeobox protein SIX1 (Homo sapiens) + Protein phosphatase EYA2 (Homo sapiens), … | AlphaScreen GST-Six1/His-Eya2 binding, biochemical; active compounds read low; control for the full effect not named in the record | activity change, % (concentration not given with the values) | hit rate 0.56% among 360,000 | AID 651725, 2012; in the data active = activity change below about -65%; inconclusive = about -30% to -65%; inactive = above about -30%; further: on the % scale 0 is the no-effect control and ±100 the full control effect
Target sequence (O00167 whole entry, looked up): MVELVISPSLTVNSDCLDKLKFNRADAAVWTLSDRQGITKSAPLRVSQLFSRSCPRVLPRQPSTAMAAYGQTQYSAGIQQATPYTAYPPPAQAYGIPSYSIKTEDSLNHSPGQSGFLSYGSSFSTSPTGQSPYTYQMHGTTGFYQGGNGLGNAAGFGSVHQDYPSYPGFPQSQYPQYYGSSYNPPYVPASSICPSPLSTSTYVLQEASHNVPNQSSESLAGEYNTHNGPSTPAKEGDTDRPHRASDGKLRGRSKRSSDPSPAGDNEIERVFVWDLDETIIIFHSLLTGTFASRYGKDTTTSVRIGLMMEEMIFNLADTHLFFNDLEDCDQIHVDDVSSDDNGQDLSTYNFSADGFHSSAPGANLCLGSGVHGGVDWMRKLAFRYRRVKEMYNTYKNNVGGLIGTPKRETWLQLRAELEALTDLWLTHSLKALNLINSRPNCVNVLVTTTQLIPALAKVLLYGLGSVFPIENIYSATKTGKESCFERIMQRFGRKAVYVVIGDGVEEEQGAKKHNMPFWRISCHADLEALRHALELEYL
Target sequence (Q15475 whole entry, looked up): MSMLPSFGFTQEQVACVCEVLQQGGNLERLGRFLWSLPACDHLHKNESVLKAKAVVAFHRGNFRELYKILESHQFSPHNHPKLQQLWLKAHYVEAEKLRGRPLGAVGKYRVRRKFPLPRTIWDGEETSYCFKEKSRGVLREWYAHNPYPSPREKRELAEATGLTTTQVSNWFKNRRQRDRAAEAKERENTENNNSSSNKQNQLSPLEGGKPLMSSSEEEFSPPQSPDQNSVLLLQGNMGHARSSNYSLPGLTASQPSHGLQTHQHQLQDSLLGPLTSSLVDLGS
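AlphaScreen luminescence read after one hour at 37 °C in darkness. Pin-transferred compounds met GST-Six1 and His-Eya2 protein (5X stock 250 nM/500 nM) plus glutathione donor and Ni-chelate acceptor beads (5X, 50 ug/mL).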
D2 agonist: Beta-Arrestin HTS for Positive Allosteric Modulators of the Human D2 Dopamine Receptor: Agonists | DiscoveRx PathHunter D2 beta-arrestin, luminescence, 90 min; 100% = 57 uM dopamine signal | activation, % (test concentration not listed) | hit rate 0.084% among 360,000 | D(2) dopamine receptor (Homo sapiens), P14416; in the data active = activation above about 40%; inconclusive = about 15% to 40%; inactive = below about 15%; further: compound concentration not given in the record; the text of the record calls up to 30% inactive
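DiscoveRx PathHunter D2 beta-arrestin cells (2,100/well) attached overnight, then compound-stimulated 90 min at 37 C in HBSS/10 mM HEPES/0.1% Tween-20 buffer; beta-galactosidase complementation read by luminescence after 1 h at ambient temperature. Dopamine 57 uM final (EC100) as control.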
PINK1 expr mod: A Quantitative High throughput Screen to Identify Chemical Modulators of PINK1 Expression. PINK1 immunofluorescence, high-content cytometry, 24 h. Potency, µM (top dose mostly 76.6 µM), inactives show at the highest dose activation (PINK1 increase), most hits filed as activators. hit rate 0.2% among 410,000; active = well fitted activation curve with a large enough effect; inconclusive = small, poorly fitted or top-dose-only effect; inactive = flat fitted curve, though single readings scatter; cell line not stated here;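 further: potency means the concentration at half of the fitted maximal effect; % of control where 0% means no effect; nearly all actives have a fitted effect of over 65% in size; a mitochondrial uncoupler was the plate control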
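Decision-based qHTS: stable cells, 24 h exposure to five compound concentrations, CCCP as control. Fixed cells stained for PINK1 plus nuclear, mitochondrial and cell markers, cytometer read.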
CtBP-E1A inh: qHTS Assay for Inhibitors of the CtBP/E1A Interaction. hit rate 0.49% among 340,000. activity change, % (no concentration beside the values). AlphaScreen GST-E1A/His-CtBP binding, 1536-well; active compounds read low; control for the full effect not named in the record. CtBP / adenovirus E1A interaction (AlphaScreen); in the data active means activity change below about -65%; inconclusive means about -30% to -65%; inactive means above about -30%; further: on the % scale 0 is the no-effect control and ±100 the full control effect
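Homogeneous bead-based format: GST-tagged E1A captured on glutathione donor beads, His-tagged CtBP on nickel acceptor beads; compounds precede bead addition by 2 h at 37 °C.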
Numbers without * were called inactive; u = inconclusive; x = not tested or not shown; [ ] = another dose, or the depositor's remark.

SMILES	TRPML1 ag	TRPML1 blocker	Six1-Eya2 blk	D2 agonist	PINK1 expr mod	CtBP-E1A inh
O=[N+]([O-])c1cccc(/C=N/n2c(C3CCCCC3)n[nH]c2=S)c1	1.0	5	-9	-5.7	12%	-13
CCN(CC)CCNc1c2c(c(C#N)c3nc4ccccc4n13)CCCC2	2.0	4	19	-1.6	-2.4%	0
O=C(c1ccc(F)cc1)N1CCCCC(S(=O)(=O)c2ccccc2)C1=O (centres undefined)	0.1	-10	1	3.8	1.9%	12
Cc1cc(C)cc(-n2c(SCC(=O)Nc3cccc(F)c3)nc3c([nH]c4ccccc43)c2=O)c1	1.9	4	x	x	17%	x
NC(=O)CC(NC(=O)c1ccccc1)c1ccc(N2CCCCCC2)c([N+](=O)[O-])c1 (centres undefined)	-0.6	-1	-13	-2.9	1.9%	-9
COc1ccc(-c2csc(NC(=O)CCn3cnc4ccccc4c3=O)n2)cc1OC	0.2	-11	-2	3.9	0.1%[38.3 µM]	-8
O=C(NCCO)c1nc(C(=O)c2ccc(Cl)cc2)c2ccccc2n1	-0.7	0	7	-0.7	0.0%	0
CC1CCN(c2nc3ccc(C(=O)NCCc4ccc(S(N)(=O)=O)cc4)cc3s2)CC1	-0.1	-11	x	x	2.2%	x
COC(=O)c1cccc(NC(=O)CSc2nnc(COc3cccc(C)c3)n2C)c1	0.4	7	-8	0.5	-2.1%	-7
O=C(Cc1ncc(C(F)(F)F)cc1Cl)Nc1cccc(Br)c1	2.1	-20	6	-2.3	-1.1%	4
CN1CCN(C(=S)c2ccc(-c3cccc(Cl)c3Cl)o2)CC1	2.1	68	u	7.2	12%	0
O=C(Nc1cccc(C(=O)NC2CC2)c1)c1ccc(Cl)c(S(=O)(=O)N2CCOCC2)c1	0.1	10	2	1.7	1.3%	x
CC(=O)Nc1ccc(/C=N/Nc2nc3ccccc3[nH]2)cc1	-0.5	17	-6	6.2	14%	x
CCOc1ccc(N(CC(=O)Nc2cc(C)cc(C)c2)S(C)(=O)=O)cc1	2.9	0	2	4.4	-2.2%	1
Cc1ccc(NC(=O)CC(=O)c2ccc([N+](=O)[O-])cc2)cc1S(=O)(=O)Nc1cccc(Cl)c1	2.0	10	-6	-5.7	32µM*	-7
O=C(CN1C(=O)NC2(CCCCCC2)C1=O)NCCc1ccc(F)cc1	3.6	13	6	4.8	1.3%	0
O=[N+]([O-])c1ccc(N2CCN(c3ccc(Cl)nn3)CC2)c(Cl)c1	0.6	22	-15	-2.7	6.4%	-20
CCOC(=O)C1=C(C)NC2=C(C(=O)CC(C)(C)C2)C1c1ccc(N(C)C)cc1 (centres undefined)	-0.4	0	-12	3.3	16%[38.3 µM]	-16
COc1cc(NC(=O)c2cc(C)nc3c2c(C)nn3-c2ccccc2Cl)cc(OC)c1	-0.5	35	x	x	3.8%	x
COc1ccc(Br)cc1/C=N/NC(=O)CN1CCCCC1	1.0	10	7	-3.0	5.2%	14
CCN(CC(=O)Nc1ccc(NC(C)=O)cc1)C(=O)/C=C/c1c(C)nn(-c2ccc(F)cc2)c1C	0.3	-13	-17	6.2	1.2%	4
COc1cc(-c2cnc3c(NC=O)cc(-c4ccc(S(C)(=O)=O)cc4)cn23)cc(OC)c1OC	-0.9	x	-1	5.2	8.3%	0
O=C(CSc1nnnn1C1CC1)N1CCN(Cc2ccccc2F)CC1	0.0	-5	-3	-1.3	1.5%	6
CC(C)(C)c1ccc(OC(=O)N2CCOCC2)cc1	-0.5	-12	16	2.8	1.7%	x
COc1cc(Cl)c(S(=O)(=O)NCCc2c(C)[nH]c3c(C)cccc23)cc1Cl	0.7	8	x	x	2.9%	x

PINK1 expr mod, hit marks shown above.
structure	TRPML1 blocker	Six1-Eya2 blk	D2 agonist	PINK1 expr mod	CtBP-E1A inh
Cc1ccc(NC(=O)CC(=O)c2ccc([N+](=O)[O-])cc2)cc1S(=O)(=O)Nc1cccc(Cl)c1	10	-6	-5.7	32µM*	-7

The list continues:
SMILES	TRPML1 ag	TRPML1 blocker	Six1-Eya2 blk	D2 agonist	PINK1 expr mod	CtBP-E1A inh
O=C(c1ccc2c(c1)N(Cc1ccccc1)C(=O)CS2)N1CCOCC1	2.7	1	1	-2.0	0.8%[38.3 µM]	-7
CCOC(=O)C1=C(CS(=O)(=O)c2ccc(C)cc2)NC(=O)NC1c1ccc(O)c(OC)c1 (centres undefined)	0.3	-7	0	3.8	0.2%	0
Cc1ccc(S(=O)(=O)N2CCN(C(=O)CN3CCc4ccccc4C3)CC2)cc1	0.0	-12	3	2.0	-0.6%[38.3 µM]	3
COc1ccc(NC(=S)NC(=O)/C=C/c2ccc(F)cc2)cc1	0.5	-14	-1	-3.6	-0.6%	-5
Cc1cc(NC(=O)CCC(=O)N(CCC(C)C)C(C(=O)NCC2CCCO2)c2ccccc2C)no1 (centres undefined)	-1.3	-11	2	-7.4	3.6%	-4
COc1cc(C(=O)OC(C)C(=O)N2CCCC2)cc2c1OCCO2 (centres undefined)	0.3	-7	7	-2.5	-0.3%	x
CC(C)(C)CC(=O)Nc1cc(S(=O)(=O)N2CCCCCC2)ccc1Cl	1.0	6	15	0.0	-0.8%	16
COc1ccc(NC(=O)C(NS(=O)(=O)c2cccc3nsnc23)c2ccccc2)cc1 (centres undefined)	0.4	-5	x	x	0.2%	x
Cc1cc(C)c(S(=O)(=O)N2CCCOC2CNC(=O)C(=O)NCc2cccs2)c(C)c1 (centres undefined)	1.4	-10	3	1.5	1.5%	1
O=[N+]([O-])c1ccccc1/C=N\N1CCN(c2ccccc2)CC1	2.6	-9	u	0.1	-0.9%	x
O=C(c1ccc2ncsc2c1)N1CCCCC1	2.1	-8	2	-2.6	1.3%	3
COc1ccccc1CNC(=O)CSc1nc2ccccc2c(=O)n1CCCN1CCOCC1	2.5	-25	8	-2.7	-0.3%	-20
CCc1cccc(C)c1NC(=O)c1cc(S(=O)(=O)N2CCN(c3ccccc3)CC2)ccc1F	4.5	29	x	x	1.7%	x
Cc1cc(O)ccc1Nc1nc(-c2cccs2)cs1	0.1	9	-5	1.2	6.2%	-22
CCS(=O)(=O)N1CCC(C(=O)NCCCN2CCCCCC2)CC1	1.0	-4	0	-1.4	x	-1
ON=C1c2ccccc2-c2ccc(O)cc21	2.2	-16	-17	-5.9	-4.0%	-15
O=C(CN1CCN(c2ccc(O)cc2)CC1)N1CCc2ccccc21	-1.3	-1	-12	8.6	1.8%	14
Cc1ccc(N2C(=O)CSC23C(=O)Nc2ccccc23)cc1F (centres undefined)	1.8	29	x	x	-0.5%	x
CCCCCC1CC(=O)C=C(C)C1C(=O)OC (centres undefined)	-1.0	14	-2	-3.9	-0.3%	5
CN(C)Cc1ccccc1C(O)(c1ccccc1)c1ccccc1	-0.2	18	-16	-3.1	3.8%	8
CCOCCc1nnc(NC(=O)COC)s1	-0.3	3	4	0.3	-5.0%[38.3 µM]	7
COC(=O)c1ccc(COc2ccc(F)cc2)o1	2.6	52	4	-1.9	3.3%	18
CCOc1ccccc1-c1ccc2nccn2c1	1.6	x	8	-2.7	11%	6
COC(=O)c1ccc(C(=O)OC)c(NC(=S)N2CCC(C(N)=O)CC2)c1	-0.3	2	-4	0.8	-1.3%	10
CC(C)(C)[C@@H]1C=C(C(=O)Nc2ccccc2)O[C@H](OCc2ccc(CO)cc2)C1	0.2	5	2	-1.2	0.2%	1

An excerpt from above, reduced to D2 agonist, TRPML1 blocker and PINK1 expr mod:
smiles | D2 agonist | TRPML1 blocker | PINK1 expr mod
COc1ccccc1CNC(=O)CSc1nc2ccccc2c(=O)n1CCCN1CCOCC1 | -2.7 | -25 | -0.3%
CCc1cccc(C)c1NC(=O)c1cc(S(=O)(=O)N2CCN(c3ccccc3)CC2)ccc1F | x | 29 | 1.7%

Laid out differently: entries from further up.
Second line of a record – TRPML1 ag, TRPML1 blocker, Six1-Eya2 blk, D2 agonist, PINK1 expr mod, CtBP-E1A inh
CC1CCN(c2nc3ccc(C(=O)NCCc4ccc(S(N)(=O)=O)cc4)cc3s2)CC1
    -0.1, -11, x, x, 2.2%, x
COC(=O)c1cccc(NC(=O)CSc2nnc(COc3cccc(C)c3)n2C)c1
    0.4, 7, -8, 0.5, -2.1%, -7
O=C(Cc1ncc(C(F)(F)F)cc1Cl)Nc1cccc(Br)c1
    2.1, -20, 6, -2.3, -1.1%, 4

Carrying on:
SMILES	TRPML1 ag	TRPML1 blocker	Six1-Eya2 blk	D2 agonist	PINK1 expr mod	CtBP-E1A inh
CCN(CC)c1ccc(N=CN2CCOCC2)cc1	-0.3	16	-16	9.4	4.5%	0
COc1ccccc1N1CCN(/N=C\c2ccccc2)CC1	x	x	-8	-0.6	0.7%	x
O=C(c1cccc(Cl)c1)N1CCC2CC1c1cc(N3CCOCC3)ccc12 (centres undefined)	-1.1	15	-17	1.3	-0.5%	-2
CC(C)(C)n1nnnc1C(c1cccs1)N(Cc1ccccc1)Cc1ccco1 (centres undefined)	9.3	1	7	-4.8	1.0%	22
C=CCn1c(SCc2cccc(F)c2)nc2cc(C(=O)N3CCC(C(N)=O)CC3)ccc2c1=O	0.3	-4	-8	-2.6	-1.9%	-10
CN(C)c1ccc(CNC(=O)CCc2ccc(S(=O)(=O)N3CCCCCC3)cc2)cc1	1.1	28	-24	-5.7	1.6%	-25
O=C(N/N=C\c1cccs1)c1ccccc1-n1cccc1	0.7	17	-1	-1.2	-0.9%	2
COc1cc(NC(=O)CCCOc2cc(=O)n(C)c3ccccc23)cc(OC)c1OC	0.9	-6	x	x	2.1%	x
c1ccc2c(Nc3nnc(-c4ccncc4)s3)cccc2c1	-0.1	3	-3	3.0	3.7%[38.3 µM]	-7
Cc1ccc(NC(=O)Cc2c(Cl)cccc2Cl)cc1S(=O)(=O)N(C)C	2.0	14	-3	2.0	2.2%	0
CC(C)(C)NC(=O)C(=O)NNC(=O)C12CC3CC(CC(C3)C1)C2	-0.4	7	-13	-4.4	-1.6%	-5
CCOC(=O)N1CCN(C(=O)C2CCN(S(=O)(=O)c3ccc(NC(C)=O)cc3)CC2)CC1	-0.5	2	0	-1.1	0.9%	0
CCCS(=O)(=O)NC(=O)C1(C)CCN(C(=O)c2cc(C)n(C(C)(C)C)n2)C1 (centres undefined)	1.2	-30	11	-3.0	2.7%	-12
CCc1ccccc1N(C(C)=O)c1nc(CCl)cs1	3.0	-5	-4	-4.2	0.2%	x
CCOc1cc(C2CC(=O)Nc3cc4c(cc32)OCCO4)ccc1O (centres undefined)	0.3	-5	x	x	2.0%	x
CC(=O)c1ccc(NC(=O)Cn2c(-n3nc(C)cc3C)nc(C)c(C)c2=O)cc1	-0.7	1	x	x	6.0%	x
Cc1ccc2c(c1)[C@H]1[C@H](CO2)[C@H](c2ccccc2)[C@]2(C)C(=O)Nc3cc(Cl)ccc3C(=O)N12	1.3	19	0	-4.0	1.0%	-2

Screens from PubChem.
